GIRK2 act: opens human GIRK2 potassium channels | P48051 | HEK293-GIRK2 thallium flux, Thallos fluorescence | calls only for hits at 25 µM | actives 0.05% (n = 63,000) | AID 1259325;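 active means among the strongest 0.2% of first-round signals and kept after retests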;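 further: first round at about 10 µM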
Target sequence (P48051 whole entry, looked up): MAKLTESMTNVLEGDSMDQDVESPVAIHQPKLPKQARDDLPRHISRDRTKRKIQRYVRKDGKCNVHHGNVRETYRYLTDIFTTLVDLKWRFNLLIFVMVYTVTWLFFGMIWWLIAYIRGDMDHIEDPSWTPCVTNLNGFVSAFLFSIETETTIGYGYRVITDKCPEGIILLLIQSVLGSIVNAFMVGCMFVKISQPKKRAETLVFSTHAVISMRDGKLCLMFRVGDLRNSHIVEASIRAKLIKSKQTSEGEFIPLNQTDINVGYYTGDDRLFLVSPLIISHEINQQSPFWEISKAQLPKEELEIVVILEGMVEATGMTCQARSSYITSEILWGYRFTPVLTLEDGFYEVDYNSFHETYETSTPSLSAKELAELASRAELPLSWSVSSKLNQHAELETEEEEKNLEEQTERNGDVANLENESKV
Calls only; i = inactive. A portion of the library; the hit share may differ from the screen's.

GIRK2 act | structure
i | Cc1cccc(NC(=O)CN2CC(c3nc(Cc4ccccc4)no3)C2)c1C
i | COCCNC(=O)CSc1nnc(C)c2cnn(-c3ccc(C)c(C)c3)c12
i | CCOCCn1c(=O)c2c(nc3n2CCCN3c2cc(C)ccc2OC)n(C)c1=O
i | CC(CCc1ccccc1)NC(=O)CCn1c(=S)[nH]c2cc3c(cc2c1=O)OCO3 (stereo not given)
i | COc1ccc(S(=O)(=O)NCc2ccccn2)c(C)c1C
i | C#CCCNC(=O)CCC=C
i | Cc1ccc2nc(C3CN(C(=O)c4ccccc4C(F)(F)F)C3)[nH]c2c1
i | Cc1cc(S(=O)(=O)NCCn2nc(-c3ccccc3)ccc2=O)ccc1F
i | CCc1ccccc1NC(=O)Nc1cnc(Oc2ccccc2)nc1
i | COc1cc(OC)cc(-c2noc(CSc3nc4ccccc4c(=O)n3Cc3cccs3)n2)c1
i | CCCCn1c(SCC(=O)Nc2cc(C)ccc2C)nc2c(sc3ncccc32)c1=O
i | Cc1nc(-n2nnc(C(=O)Nc3cccc(Cl)c3C)c2C)sc1C
i | CCOC(=O)N1CCN(C2CC(=O)N(c3ccc(CC)cc3)C2=O)CC1 (stereo not given)
i | CCn1c(=O)c2ccccc2n(Cc2nc(-c3ccc(OCc4ccccc4)cc3)no2)c1=O
i | COC(=O)c1ccc(C2c3c(oc4ccccc4c3=O)C(=O)N2CCN2CCOCC2)cc1 (stereo not given)
i | COc1ccc(CCNC(=O)Cn2nnc(C(=O)Nc3cccc(C)c3C)c2N)cc1OC
i | COc1ccc(NC(=O)C(=O)NCCc2c[nH]c3ccccc23)cc1OC
i | CC(=O)c1cccc(NC(=O)c2nccnc2-c2nc3ccccc3s2)c1
i | COC(=O)c1ccc2c(=O)n(CCCC(=O)NCC3CCCO3)c(=S)[nH]c2c1 (stereo not given)
i | COc1ccccc1C(=O)Nc1ccc(-c2cnc3n2CCC3)cc1
i | CCN1CCC(CC(=O)Nc2n[nH]c3nnc(-c4cccc(F)c4F)cc23)CC1
i | O=C(NCCc1c[nH]c2ccccc12)c1cc2ccccc2o1
i | COc1ccc(CNC(=O)c2nnn(-c3ccc(F)cc3)c2-c2ccncc2)cc1OC
i | COC(=O)c1ccc(C(=O)NCC2(c3ccc(F)cc3)CCOCC2)cc1
i | O=C(COc1ccc(Cl)cc1)NCCCN1CCN(c2ccccc2)CC1
i | CN(CC(=O)Nc1ccc(F)c(F)c1F)c1nc2c(Cl)cccc2s1
i | COc1ccccc1OCC#CCNC(=O)c1cc(-c2ccco2)on1
i | CC(C)CCNC(=O)C(=O)c1cn(CC(=O)N2CCOCC2)c2ccccc12
i | COc1ccc(CNC(=O)CSC2=NNC3C4CC(c5ccc(OC)cc5)NN4C=CN23)cc1 (stereo not given)
i | COc1cccc2sc(N3CC(OC(=O)COc4ccccc4C)C3)nc12
i | O=C(Cn1cnc2ccccc21)NCc1nc(-c2ccccc2)no1
i | Cc1cc(NS(=O)(=O)c2ccc(NC(=O)CN(C)c3nc4ccccc4s3)cc2)nc(C)n1
i | Cn1c(C2CCN(S(C)(=O)=O)CC2)nn(CC(=O)Nc2cccc(C(F)(F)F)c2)c1=O
i | Cc1ccc(S(=O)(=O)N2CCC(C(=O)Nc3nc(-c4ccccc4)cs3)CC2)cc1
i | COc1cc(NC(=O)C2CC(=O)N(c3cccc(Br)c3)C2)ncn1 (stereo not given)
i | CN(CCO)CC1COCCN1C(=O)c1nc2ccccc2s1 (stereo not given)
i | COc1ccc(NC(=O)CCCSc2nc(C)cc(C(F)(F)F)c2C#N)cc1
i | CC1(C)OC2OC(C(=O)NCc3cccs3)C3OC(C)(C)OC3C2O1 (stereo not given)
i | O=c1c(-c2ccc(Br)cc2)c(C(F)(F)F)oc2cc(O)ccc12
i | C=CCn1c(N2CCC(C(N)=O)CC2)nc2c1c(=O)[nH]c(=O)n2C
i | CC(Cc1cccs1)NC(=O)C(=O)Nc1cccc(C(F)(F)F)c1 (stereo not given)
i | CC(=O)N1CCN(C(=O)C(NC(=O)c2ccccc2)S(=O)(=O)c2ccc(Cl)cc2)CC1 (stereo not given)
i | COc1ccc(NC(=O)Nc2nc(-c3ccccc3)c(C(C)=O)s2)cc1OC
i | COc1cc(C2c3c(oc4ccc(C)cc4c3=O)C(=O)N2CCO)cc(OC)c1OC (stereo not given)
i | CCOc1cccc(C(=O)CN2C(=O)c3ccccc3OC(C(C)C)C2=O)c1 (stereo not given)
i | COc1cccc(-c2cn3c(C(=O)N4CCN(c5ccc(F)cc5)CC4)csc3n2)c1
i | COC(=O)c1ccccc1NC(=O)c1nc(SC)ncc1Cl
i | O=C1/C(=C/c2ccncc2)SC(=S)N1c1ccc(O)cc1
i | O=C(c1ccsc1)N1CCN(c2ccccn2)CC1
i | O=C(c1ccc(OC(F)(F)F)cc1)N(Cc1ccoc1)Cc1cccs1
i | O=C(c1ccc2ncsc2c1)N1CCN(CCn2cccn2)CC1
i | COc1ccccc1CNc1nc2c(S(=O)(=O)c3cccc(Cl)c3)nnn2c2ccsc12
i | O=C(C1CCC1)N1CCC(Cn2cnc3ccccc32)CC1
i | COc1ccc(-n2nnc3c(N4CCN(C(=O)COc5ccc(C(C)C)cc5)CC4)ncnc32)cc1
i | Cn1c(C2CCN(S(C)(=O)=O)CC2)nn(CC(=O)Nc2ccc3c(c2)OCO3)c1=O
i | Cc1c(Cl)ccc2sc(N(Cc3ccncc3)C(=O)CCc3ccccc3)nc12
i | CC(C)(C)c1ccc(-c2nc3oc4ccccc4c(=O)c3c(=O)n2Cc2ccco2)cc1
i | COc1ccc(-c2noc(-c3cccn(CC(=O)Nc4ccc(Cl)cc4)c3=O)n2)cc1OC
i | CCOc1ccccc1C(=O)NCC1CCS(=O)(=O)C1 (stereo not given)
i | Cc1ccc2c(c1)c(=O)c(-c1nc(-c3cccc(Cl)c3)no1)cn2C

The list goes on:
GIRK2 act | structure
i | COc1ccccc1CNC(=O)Cn1c(=O)oc2ccc(Cl)cc21
i | CCn1c(=O)c2c(nc3n(-c4cc(OC)ccc4OC)c(C)cn23)n(C)c1=O
i | Cc1nc(NC(=O)c2ccc(-n3ccnc3C)nn2)sc1C(=O)N(C)C
i | Cc1ccc(S(=O)(=O)N(C)c2ccc(NS(C)(=O)=O)cc2)cc1
i | COc1ccccc1OCC#CCNC(=O)CSc1nnnn1C
i | CCOC(=O)c1cnn2ccc(NC(C)=O)cc12
i | CCc1ccccc1-n1c(C)cn2c3c(=O)n(CC(N)=O)c(=O)n(C)c3nc12
i | O=C(CCC1CCCCC1)NCCCS(=O)(=O)N1CCN(c2ccccc2)CC1
i | COC(=O)c1ccc2nc(NC(=O)NCc3cccs3)sc2c1
i | Cc1cc(C(=O)NCCCn2ncccc2=O)no1
i | O=C(Nc1ccc(F)cc1)Nc1ccc2c(c1)CCCN2C(=O)c1ccccc1
i | O=C(NCc1cccs1)C(=O)NCC1(O)CCc2ccccc21 (stereo not given)
i | CC(=O)c1cccc(NC(=O)Cn2nc(-c3cccc(Br)c3)ccc2=O)c1
i | O=C(CSc1nc2ccccc2[nH]1)Nc1ccc(C(=O)O)cc1
i | Cc1cc(C(F)(F)F)nc(CCNC(=O)c2cccc(C#N)c2)n1

Among those listed so far, two contain a cyano group.
GIRK2 act | structure
i | COc1ccc(NC(=O)CCCSc2nc(C)cc(C(F)(F)F)c2C#N)cc1
i | Cc1cc(C(F)(F)F)nc(CCNC(=O)c2cccc(C#N)c2)n1

Next part.
GIRK2 act | structure
i | Cc1ccc(C)c2c1N(Cc1ccccc1)C(=O)C21OCCO1
i | CCN(c1ccsc1C(=O)N1CCSCC1)S(=O)(=O)c1ccc(Cl)cc1
i | CC(=O)Nc1nc(N2CCC(C(=O)NCc3cccs3)CC2)sc1C(=O)N1CCCC1
i | Cc1nc(NCCNC(=O)/C=C/c2ccco2)cc(-n2cccc2)n1
i | N#CCSc1ncc(-c2cccc([N+](=O)[O-])c2)n1-c1cccc(Cl)c1
i | Cn1cnnc1SCc1cc(=O)c(OCC(=O)c2ccccc2)co1
i | O=C(COc1ccc(Cl)cc1Cl)NCCCn1ccnc1-c1ccccc1
i | CC(=O)Nc1ccc(NC(=O)CSc2nnc(-c3cccnc3)o2)cc1
i | O=C(NCCc1c[nH]c2ccccc12)c1csc(-c2cnccn2)n1
i | COc1ccc(Cl)cc1NC(=O)NCC1COC2(CCCCC2)O1 (stereo not given)
i | COCCNC(=O)C(=O)NC(C)Cc1ccco1 (stereo not given)
i | CCOC(=O)N1CCC(NC(=O)c2cnn3c2OCCC3)CC1
i | Cc1cc(C(=O)N(CCCN(C)C)c2nc3c(C)ccc(Cl)c3s2)on1
i | O=C(CSCc1ccccc1)NCc1n[nH]c(=O)c2ccccc12
i | O=C(NCC1CCC(c2nc3ccccc3[nH]2)CC1)c1ccc(Cn2ccnc2)cc1 (stereo not given)

By substructure: those above containing a thiophene ring, fused or not.
GIRK2 act | structure
i | COc1cc(OC)cc(-c2noc(CSc3nc4ccccc4c(=O)n3Cc3cccs3)n2)c1
i | CCCCn1c(SCC(=O)Nc2cc(C)ccc2C)nc2c(sc3ncccc32)c1=O
i | CC1(C)OC2OC(C(=O)NCc3cccs3)C3OC(C)(C)OC3C2O1 (stereo not given)
i | CC(Cc1cccs1)NC(=O)C(=O)Nc1cccc(C(F)(F)F)c1 (stereo not given)
i | O=C(c1ccsc1)N1CCN(c2ccccn2)CC1
i | O=C(c1ccc(OC(F)(F)F)cc1)N(Cc1ccoc1)Cc1cccs1
i | COc1ccccc1CNc1nc2c(S(=O)(=O)c3cccc(Cl)c3)nnn2c2ccsc12
i | COC(=O)c1ccc2nc(NC(=O)NCc3cccs3)sc2c1
i | O=C(NCc1cccs1)C(=O)NCC1(O)CCc2ccccc21 (stereo not given)
i | CCN(c1ccsc1C(=O)N1CCSCC1)S(=O)(=O)c1ccc(Cl)cc1
i | CC(=O)Nc1nc(N2CCC(C(=O)NCc3cccs3)CC2)sc1C(=O)N1CCCC1

Next compounds.
GIRK2 act | structure
i | Cc1cccc(Cn2c(C3CC(=O)N(Cc4ccc(F)cc4)C3)nc3ccccc32)c1 (stereo not given)
i | Cc1nc(-c2ccco2)sc1CNC(=O)c1ccccc1C(F)(F)F
i | O=C(c1ccc(OC(F)(F)F)cc1)N1CCCC(c2nnc(C(F)(F)F)o2)C1 (stereo not given)
i | CCOc1ccc2nc(NC(=O)Cc3c(C)[nH]c(=O)[nH]c3=O)sc2c1
i | CCc1cccc(C)c1NC(=O)Cn1cnc2c(-c3ccc(OC)cc3)csc2c1=O
i | Cc1cc(C(=O)N2CCCC(c3nnc(Cc4ccccc4)s3)C2)no1 (stereo not given)
i | Cc1ccc(/C=C/S(=O)(=O)N2CC(c3nc(-c4cccs4)no3)C2)cc1
i | O=S(=O)(c1ccccc1)N1CCC(CSCc2ccco2)CC1
i | O=C(/C=C/c1ccsc1)NCC1CCN(C(=O)c2ccoc2)CC1
i | O=C(NCC(O)c1ccoc1)Nc1ccc(C(F)(F)F)cc1 (stereo not given)
i | Cc1cc(NC(=O)c2ccc(C)c([N+](=O)[O-])c2)n(-c2nc(-c3ccccc3)cs2)n1
i | O=C(CCCS(=O)(=O)Cc1ccccc1)Nc1nccs1
i | CN(C)C(CNS(=O)(=O)c1ccc2c(c1)CCCC2)c1cn(C)c2ccccc12 (stereo not given)
i | COc1cc(C)c(Br)cc1S(=O)(=O)N1CCN=C1c1ccccc1
i | Cc1cccc(Cn2c(N3CCN(CC(N)=O)CC3)nc3c2c(=O)[nH]c(=O)n3C)c1
i | Cc1nnsc1C(=O)N1CCC(Cn2c(COc3ccccc3)nc3ccccc32)CC1
i | COc1cccc(-n2c(C)cn3c4c(=O)n(CC(C)=O)c(=O)n(C)c4nc23)c1
i | CC(=O)Nc1sc2c(c1-c1nc3ccccc3s1)CCC(C)C2 (stereo not given)
i | COc1cccc(Cn2nnc3c(=O)n(Cc4nc(-c5ccc(SC)cc5)no4)cnc32)c1
i | COc1ccc(-n2c(=O)c3ccccc3n(CC(=O)NC3CCCCC3)c2=O)cc1OC
i | Cc1ccc(S(=O)(=O)c2cnc(N3CCC(C(N)=O)(N4CCCCC4)CC3)nc2N)cc1
i | COc1cccc(OCC(=O)Nc2cc(C)nn2-c2nc3ccccc3s2)c1
i | COc1cccc2c1c(=O)oc(=O)n2C
i | Cc1cc(C)c(NC(=O)CSc2nccn2-c2cccc(C(=O)NCc3ccccc3)c2)c(C)c1
i | Cc1nc2sc(C)c(C)n2c(=O)c1NC(=O)c1cccs1
i | CONC(=O)c1coc(NC(=O)C2CC2)n1
i | O=C(c1ccc(Cl)s1)N1CCCSCC1CN1CCCC1 (stereo not given)
i | Nc1nc(NCCOCCO)ncc1[N+](=O)[O-]
i | COc1ccc(OC)c(NC(=O)CCC2=NS(=O)(=O)c3ccccc3N2)c1
i | CC(=O)N1CCN(C(=O)C(NC(=O)c2ccc(F)cc2)S(=O)(=O)c2ccccc2)CC1 (stereo not given)
i | COc1ccc(Cl)cc1C(=O)Nc1ccc(-c2nc(C)no2)cc1
i | CSc1ccccc1C(=O)N1CCC(CSc2nccn2C)CC1
i | CCCN1CCc2nc(SCc3ccccc3F)[nH]c(=O)c2C1
i | CCCc1cc(=O)n2[nH]cc(C(=O)NCc3cccc(C(F)(F)F)c3)c2n1
i | COc1ccc(OC)c(Nc2nnc(Cc3ccc(C)cc3)c(=O)[nH]2)c1
i | O=C(Cc1csc(Nc2ncccn2)n1)Nc1ccc2c(c1)Cc1ccccc1-2
i | COc1ccc(Cl)cc1C(=O)N1CCC(S(C)(=O)=O)CC1
i | O=C(Nc1ccc(C(F)(F)F)cc1)C(=O)N1CCN(c2ccccc2F)CC1
i | Cc1cc(C)cc(N2C(=O)CC(C3CCCC=C3N3CCOCC3)C2=O)c1 (stereo not given)
i | Cc1cc(NC(=O)C2CCN(c3ccc(-c4cccs4)nn3)CC2)on1
i | CCc1ccc(NC(=O)Cn2c(N3CCOCC3)nc(C)cc2=O)cc1
i | CCc1cccc(NC(=O)Cn2cccc(S(=O)(=O)N3CCOCC3)c2=O)c1

Screens as filed in PubChem.
